# Insulin prom inh – TRM-6 insulin promoter activity inhibition | inhibition, % at 2 µM | AID 1273 | TRM-6 cells (human fetal islet line), insulin promoter-eGFP reporter, imaging; reporter expression induced with tamoxifen | 130,000 compounds, 0.9% hits;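 active = inhibition above the mean plus 3 SD, with well images judged a real hit on visual review, cut at about 60% in these data, passing the limit was not always enough; inconclusive = inhibition over the cutoff but images rejected on review; inactive = inhibition not above the cutoff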
# RGS16-Gao – RGS16-Galphao interaction regulator (human). O15492+P09471. bead-based flow cytometry RGS16-Galphao binding, fluorescence; actives lie on both sides. binding response (% of control), % at 10 µM. 220,000 compounds, 0.38% hits. AID 1441;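 active = below 25% or above 175%, edge rows of some plates excepted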;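 note: Galphao activated by GDP with aluminum fluoride before binding; 100% = wells without compound and 0% = beads without RGS; some results beyond the cut were filed as inactive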
# Target sequence (O15492 whole entry, looked up): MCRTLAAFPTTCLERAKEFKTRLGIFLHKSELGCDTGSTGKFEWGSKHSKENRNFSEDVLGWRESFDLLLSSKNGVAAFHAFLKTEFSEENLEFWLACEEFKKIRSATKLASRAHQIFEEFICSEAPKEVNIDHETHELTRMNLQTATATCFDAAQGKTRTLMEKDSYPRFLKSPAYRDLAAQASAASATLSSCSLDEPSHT
# Target sequence (P09471 whole entry, looked up): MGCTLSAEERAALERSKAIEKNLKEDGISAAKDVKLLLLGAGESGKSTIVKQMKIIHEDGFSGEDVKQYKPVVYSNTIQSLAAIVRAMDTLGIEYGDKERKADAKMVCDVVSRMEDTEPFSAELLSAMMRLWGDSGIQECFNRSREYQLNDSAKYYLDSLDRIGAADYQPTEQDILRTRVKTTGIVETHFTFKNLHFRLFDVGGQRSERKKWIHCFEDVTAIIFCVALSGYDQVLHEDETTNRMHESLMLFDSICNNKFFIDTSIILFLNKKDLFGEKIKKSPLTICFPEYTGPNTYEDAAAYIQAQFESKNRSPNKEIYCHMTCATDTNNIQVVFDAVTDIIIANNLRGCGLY
# GALR2 ag – activates the human galanin receptor 2; activation, %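 (tested at 5 µM)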; GALR2-expressing cells, agonist activation read-out; O43603; 140,000 compounds, 0.48% hits;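 active = above mean plus 3 SD of all compounds, about 5% in these data, not always enough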;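 note: 0% = vehicle buffer wells and 100% = reference agonist at full effect; tested in CHO reporter cells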
# Target sequence (O43603 whole entry, looked up): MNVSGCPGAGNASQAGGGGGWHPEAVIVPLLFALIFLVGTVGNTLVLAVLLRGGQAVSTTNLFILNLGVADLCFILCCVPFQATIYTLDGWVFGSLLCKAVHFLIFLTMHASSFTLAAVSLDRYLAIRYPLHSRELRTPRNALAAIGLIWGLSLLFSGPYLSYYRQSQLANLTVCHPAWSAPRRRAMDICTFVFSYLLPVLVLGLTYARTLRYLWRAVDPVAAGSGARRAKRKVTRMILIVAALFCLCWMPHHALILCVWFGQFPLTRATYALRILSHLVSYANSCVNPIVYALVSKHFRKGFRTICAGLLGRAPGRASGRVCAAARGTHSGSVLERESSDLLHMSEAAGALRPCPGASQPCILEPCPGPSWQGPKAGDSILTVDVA
# HSV replic up – HSV replication enhancement; HSV replication augmentation in cells, fold increase; maximum fold increase; 220,000 compounds, 0.005% hits;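 active = peak rise of 1.5-fold or more in the series; inconclusive = self-fluorescent or not available for retest; tested in PC3 cells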;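 note: first round at 10 µM; read as green reporter fluorescence; hits show the peak of a series up to 25 µM; 1 = signal of infected wells without compound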
# PKD1 inh – inhibitors of human PKD1 kinase; PKD1 kinase fluorescence polarization assay; Q15139; inhibition, %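 (about 10 µM by stock and volumes)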; 200,000 compounds, 0.056% hits;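 active = inhibition of 50% or more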;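 note: controls were vehicle for no effect and a reference inhibitor for full effect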
# Insulin prom inh cell count – further read-out of Insulin prom inh, marked with its call; normalized cell count, %; measured here: cell count, toxicity; reference of the scale not given here;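 cells exposed to compound for 48 h; stained nuclei by imaging scaled within each plate; lower means fewer cells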
# HSV replic up primary fold – second read-out of HSV replic up, no call of its own (marks repeat the call); fold increase; compound at 10 µM; measured here: primary screen fold increase 10 uM; tested in PC3 cells;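 GFP signal in the first replicate; 1 = infected wells without compound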
# The depositor's hits bear a star; i = inactive; u = inconclusive; x = not tested or not shown.
nr	Structure	HSV replic up	Insulin prom inh cell count	Insulin prom inh	RGS16-Gao	HSV replic up primary fold	GALR2 ag	PKD1 inh
1	O=S(=O)(c1ccccc1)N(CC(O)COc1ccccc1)c1ccccc1 (stereo not given)	i	x	x	101	0.86	x	x
2	C[C@@H](NC(=O)c1nc[nH]c1C(=O)N[C@@H](Cc1ccccc1)C(=O)OC(C)(C)C)c1ccccc1	i	x	x	102	0.65	x	-1
3	CN1N=C(C(C)(C)C)CC1=O	i	x	x	98	1.1	x	x
4	CC1Oc2ccccc2C=C1/C=N/NC(=O)c1ccncc1 (stereo not given)	i	x	x	105	0.99	x	x
5	COc1cc2c(cc1OC)C1Cc3ccc(OC)c(OC)c3C[N+]1([O-])CC2 (stereo not given)	i	x	x	94	1	x	x
6	O=C(/C=C/c1ccc(F)cc1)NC(=S)N1CCOCC1	i	x	x	109	1.1	x	-5
7	Cc1cc(O)c(NC(=O)c2ccco2)cc1C	i	64	24	103	0.9	-1.9	2
8	CC1CCCC(C)N1C(=C(Cl)Cl)C(=C1SCCS1)[N+](=O)[O-] (stereo not given)	i	x	x	97	1.1	x	2
9	CCN1CCCC1CNS(=O)(=O)c1cccc(C(F)(F)F)c1 (stereo not given)	i	84	33	102	0.95	x	-5
10	COc1cc(=O)n(C)c2cc(N(C)C)ccc12	i	129	64	107	1	-1.3	-2
11	NCCCCNCCCN	i	x	x	83	0.98	x	x
12	COc1ccc2oc(=O)c(-c3csc(Nc4cccc(O)c4)n3)cc2c1	i	125	50	105	0.94	0.8	4
13	O=C(CC(c1ccccc1)c1ccccc1O)N1CCCC1 (stereo not given)	i	78	-19	108	0.68	-2.3	-1
14	COc1ccc(NC(=O)c2cc(-c3cc(C)cc(C)c3O)n[nH]2)cc1Cl	i	x	x	101	1.2	-0.1	-5
15	CC(=O)c1cn(CC(=O)Nc2ccccc2C)c2ccccc12	i	90	-43	94	0.99	-1.1	-7
16	Cc1ccc(S(=O)(=O)NCCN=C(CN2CCCC2)NS(=O)(=O)c2ccc(C)cc2)cc1	i	x	x	100	0.92	-2.4	-11
17	COc1ccc(Nc2sc(C(=O)Nc3cccc(Cl)c3)c(N)c2C(=O)Nc2ccccc2OC)cc1	i	x	x	102	1	1.8	11
18	O=C(Cc1c(O)c2ccccc2[nH]c1=O)NC1CCCCCCC1	i	x	x	98	0.84	-0.8	-4
19	O=C1c2cccnc2C(Nc2ccccc2)N1Cc1ccco1 (stereo not given)	i	x	x	90	0.98	-2.4	-4
20	COc1ccc([N+](=O)[O-])cc1C1NN=C(c2ccccc2O)S1 (stereo not given)	i	65	-32	93	0.84	-1.7	-6
21	COc1ccc(CNC(=O)C2CCCN2C)cc1OC (stereo not given)	i	x	x	110	0.92	x	x
22	CCOC(=O)c1nc2cc3n(c(C)c-2c1C)C(C)C(CC)=C3C (stereo not given)	i	94	-219	x	0.96	-1.2	-13
23	COCC(=O)O[C@]1(CCN(C)CCCc2nc3ccccc3[nH]2)CCc2cc(F)ccc2[C@@H]1C(C)C	i	x	x	109	0.59	x	x
24	CCOC(=O)CSc1nnc(NC(=O)c2cccc([N+](=O)[O-])c2C)s1	i	x	x	65	0.84	-1.4	1
25	COc1cc(C2N(c3ccccn3)C(=O)C3CCCN32)cc(OC)c1OC (stereo not given)	i	x	x	100	1.1	-1.1	-10

# Next part, starting with the last 3 of the part before.
nr	Structure	HSV replic up	Insulin prom inh cell count	Insulin prom inh	RGS16-Gao	HSV replic up primary fold	GALR2 ag	PKD1 inh
23	COCC(=O)O[C@]1(CCN(C)CCCc2nc3ccccc3[nH]2)CCc2cc(F)ccc2[C@@H]1C(C)C	i	x	x	109	0.59	x	x
24	CCOC(=O)CSc1nnc(NC(=O)c2cccc([N+](=O)[O-])c2C)s1	i	x	x	65	0.84	-1.4	1
25	COc1cc(C2N(c3ccccn3)C(=O)C3CCCN32)cc(OC)c1OC (stereo not given)	i	x	x	100	1.1	-1.1	-10
26	COc1ccc2c(c1OC)C(=O)N(c1ccccn1)C2	i	x	x	94	0.95	0.2	5
27	Cc1nn(CC(=O)Nc2ccc3c(c2)nc2n3CCN(C3CCCCC3)C2)c(=O)c2ccccc12	i	x	x	94	0.94	x	7
28	CCN(CC)c1ccc(C(=O)N2CCN(Cc3ccccc3)CC2)cc1	i	x	x	94	0.93	-1.8	-10
29	O=C(CCc1ccccc1)NNC(=O)c1ccc(Br)cc1	i	x	x	110	1.1	x	5
30	CN(C(=O)CSc1nc(-c2ccccc2)cn1N)C(c1ccccc1)c1ccccc1	i	93	-82	97	0.91	-0.9	3
31	Cc1ccc(CNC(=O)CCCCCNc2nc(=S)[nH]c3ccccc23)cc1	i	x	x	129	0.92	x	-7
32	C=CCNc1nc(C2(C)CC3(CC(C)OC3=O)C(=O)O2)cs1 (stereo not given)	i	148	37	105	0.78	-0.9	0
33	COc1cccc(CNC(=S)Nc2cc(C)cc(C)c2)c1	i	x	x	103	0.96	x	0
34	O=C(Nc1ccc(OC(F)F)c(Cl)c1)c1ccccn1	i	55	-75	29	0.93	x	-8
35	CN(C)CCCN(Cc1ccccc1)C(=S)NCc1ccccc1	i	x	x	107	1	x	-1
36	O=C(CSc1nnc(-c2ccccc2)o1)c1nnc(-c2ccccc2)o1	i	38	-144	107	1.1	-2.0	-8
37	CCc1ccccc1Nc1nc2ccccc2n1C	i	x	x	104	0.93	x	-2
38	COC(=O)c1cccc(NC(=O)CN2CCN(Cc3ccccc3)CC2)c1	i	99	-14	102	0.94	-5.1	0
39	CC1(C)CC(CC(=O)O)C(=O)O1 (stereo not given)	i	99	13	97	0.98	-1.0	5
40	O=C(CN(C1CCCCC1)S(=O)(=O)c1ccc(F)cc1)NC1CC1	i	133	-63	45	0.89	-1.9	6
41	NC(=O)CS(=O)(=O)c1nc2ccccc2n1Cc1ccccc1F	i	105	41	104	0.93	-3.6	-2
42	O=C(O)CSCC(=O)Nc1ccc(C2CCCCC2)cc1	i	112	-8	99	1.4	0.1	-7
43	Cc1sc2nc(C3CC3)nc(NCCNS(C)(=O)=O)c2c1C	i	x	x	93	1	-1.4	14
44	Nc1nc(NCCCN2CCOCC2)nc(NCc2ccccc2)c1[N+](=O)[O-]	i	x	x	102	0.91	x	x
45	Cc1cc(=O)oc2cc(OCc3ccc(C(=O)OCC(=O)N(C)C4CCS(=O)(=O)C4)cc3)ccc12 (stereo not given)	i	x	x	102	0.9	x	x
46	CC(C)(C)[C@@H]1C=C(C(=O)Nc2ccccc2)O[C@H](OCc2ccc(CO)cc2)C1	i	x	x	107	0.77	x	8
47	N#CCSc1n[nH]c2nc3c(c(=O)n12)C1(CCCCC1)Cc1ccccc1-3	i	x	x	101	1.1	x	x
48	CCOP(=O)(OCC)c1nc(-c2ccc(Cl)cc2)oc1NCc1ccccc1	i	126	-107	109	0.89	x	1
49	O=C1C2C3C=CC([C@@H]2C(=O)N1C1CCCCC1)[C@H]1C(=O)N(C2CCCCC2)C(=O)C31 (stereo not given in full)	i	105	28	101	0.95	-1.3	-1
50	CCOc1ccc(N2C(=O)C3ON(C)C(c4ccc([N+](=O)[O-])cc4)C3C2=O)cc1 (stereo not given)	i	x	x	101	0.95	x	x
51	O=C(Nc1ccc(Cl)c([N+](=O)[O-])c1)Nc1nc2ccccc2s1	i	x	x	97	0.85	x	x
52	O=C1Nc2ccc(Cl)cc2C(=O)C1(F)c1ccccc1 (stereo not given)	i	x	x	97	0.99	x	x
53	c1ccc(N2CCCCC2)c(NC2=NCCC2)c1	i	x	x	91	1	-3.1	-1
54	NS(=O)(=O)c1ccc(CNC(=O)NC23CC4CC(CC(C4)C2)C3)cc1	i	134	25	102	0.96	-0.8	-3
55	COCc1nnc(NC(=O)c2ccc(S(=O)(=O)N3CCCc4ccccc43)cc2)o1	i	x	x	105	0.86	x	4
56	Cc1ccc(NC(=O)COC(=O)CCc2nc3ccccc3c(=O)[nH]2)c(Br)c1	i	116	55	99	1	x	-9
57	Cn1c(C(=O)N2CCCC(C(=O)N3CCN(C(=O)c4ccco4)CC3)C2)cc2sccc21 (stereo not given)	i	x	x	104	0.87	-1.4	-2
58	Cc1ccoc1C(=O)NCc1occc1C(=O)O	i	x	x	102	1.1	-1.1	-5
59	O=C(CNC(=O)OCc1ccccc1)NCC(=O)N1CCCC1C(=O)OCc1ccccc1 (stereo not given)	i	70	-8	107	1	0.1	4
60	CC(C)c1ccc(NC(=O)c2cccc(Br)c2)cc1	i	120	-36	66	0.92	x	-3
61	CCOC(=O)c1c(C)c(C(=O)NC(C)COC)c(C)n1CC (stereo not given)	i	x	x	96	1.1	-0.6	-9
62	COc1ccc(NC(=S)NCCC(c2ccccc2)c2ccccc2)c(OC)c1	u	125	-14	99	x	-2.9	-9
63	CCN1CCCC1CNC(=O)C(=O)NC (stereo not given)	i	83	23	100	0.95	x	-2
64	CC(OC(=O)c1cccnc1)C(=O)NCc1ccc2c(c1)OCO2 (stereo not given)	i	x	x	122	1.2	-0.3	-2
65	CCCS(=O)(=O)N1CCCC(C(=O)NCCN(CC)CC)C1 (stereo not given)	i	x	x	100	1	-1.5	-5
66	CCOc1ccc(N2C(=O)c3cccnc3C2Nc2ccc(C)cc2)cc1 (stereo not given)	i	x	x	108	1.1	-2.0	8
67	O=C(Nc1cccc(Cl)c1)c1ccncc1	i	115	-67	102	1.1	-0.7	-13
68	Cc1nn(Cc2ccc(Cl)cc2)c(C)c1NC(=O)c1noc2c1CCc1ccccc1-2	i	x	x	103	1	-1.9	-5
69	COc1ccc(C)cc1NCc1cc(=O)oc2cc(-c3ccccc3)c(O)cc12	i	x	x	109	0.84	0.4	-8
70	Cc1nc(C(C)N(C)Cc2c(C(=O)N3CCCCC3)nc3c(C)cccn23)c(C)s1 (stereo not given)	i	x	x	94	0.89	x	3
71	O=C(c1cccs1)N1CCN(Cc2cccc([N+](=O)[O-])c2)CC1	i	92	18	105	0.97	0.9	-7
72	Cc1cnc(NC(=O)CC2CCCC2)s1	i	x	x	101	1	x	-2
73	Cn1cnnc1Sc1nc([N+](=O)[O-])nn1C	i	x	x	104	0.94	x	9
74	CCc1ccc(/C=C2\Oc3c(ccc(O)c3CN3CCN(CCO)CC3)C2=O)cc1	i	x	x	105	1.2	x	x
75	COc1cccc2c(=O)ccoc12	i	110	-11	115	1.2	-2.0	3

# Later entries.
nr	Structure	HSV replic up	Insulin prom inh cell count	Insulin prom inh	RGS16-Gao	HSV replic up primary fold	GALR2 ag	PKD1 inh
76	COC(=O)Cc1[nH]n(-c2ccccc2)c(=O)c1C(C)=Nc1ccccc1	i	161	-42	102	1	x	-2
77	COc1ccc(-c2nn(-c3ccccc3)cc2CN(C)CCn2ccnc2C)c(F)c1	i	x	x	86	0.84	x	x
78	O=C(Nc1ccc(Br)cc1)Nc1ccccc1F	i	x	x	100	1.1	x	3
79	COc1ccc(NC(=O)c2csc(Cc3ccccc3)n2)cc1	i	x	x	103	1.3	-0.9	4
80	CC1CCN(C(=S)c2cn(Cc3ccc(F)cc3)c3ccccc23)CC1	u	84	-25	101	x	-1.8	-4
81	CC(=O)N1N=C(c2ccc(C)o2)CC1c1cccc(F)c1 (stereo not given)	i	x	x	102	0.95	x	-2
82	CN1CCc2c1nc1ccccc1c2N=C1CCCN1Cc1ccccc1	x	106	-100	110	x	1.8	-6
83	CN(C)N1C(N)=C(C#N)C(c2ccsc2)C2=C1CC(C)(C)CC2=O (stereo not given)	i	120	-20	103	1	-1.5	-9
84	NC(=O)NC(=O)CSc1ccccc1	i	x	x	106	1.1	x	-5
85	CCN(CC)c1ccc(/C=N/NC(=O)CCC(=O)NCc2ccccc2)c(O)c1	i	92	-183	107	0.6	-0.3	-4
86	CCCn1c(=O)[nH]c(=O)c2c(C(=O)OCC)cc(-c3cccs3)nc21	i	x	x	103	0.84	x	-4
87	Cc1ccc(C(=O)O/N=C(\N)c2cccnc2)cc1[N+](=O)[O-]	i	186	27	102	0.84	0.9	9
88	CC(C)CNC(=O)C1CCN(c2ccc(S(=O)(=O)N3CCOCC3)cc2[N+](=O)[O-])CC1	i	x	x	104	0.91	x	x
89	Cc1ccc(NC(=O)C2(N(C(=O)Cn3nnnc3N)c3ccc(C)cc3)CCCCC2)cc1	i	114	11	103	0.95	-1.7	0
90	Cn1c(COc2ccc3ccccc3c2)nnc1SCC(N)=O	i	118	33	95	0.93	0.6	-2
91	CC(C)c1ccc(/C=N/NC(=O)C(=O)NCCCN2CCOCC2)cc1	i	71	29	109	1	-1.4	-12

# Screening data deposited in PubChem by several laboratories.
